Assay outcomes as filed in PubChem.
Cruzain inh Det = inhibitors of Trypanosoma cruzi cruzain with detergent; P25779; purified cruzain, Z-FR-AMC fluorescence, 0.01% Triton; Potency, µM, inactives show max response, negative = inhibition, usual class: inhibitors; 0.43% of 200,000 active; active = well fitted curve in the direction sought with a large enough effect; inconclusive = small, poorly fitted or top-dose-only effect, or another doubt; inactive = no such curve, though single readings can be large; an effect the other way counts as inactive or inconclusive;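 also: plate controls were neutral wells for no effect and buffer without enzyme for full effect; nearly all actives have a fitted effect of over 40% in size; top concentration of the series not given in the record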
Target sequence (P25779 123-467 limits assumed): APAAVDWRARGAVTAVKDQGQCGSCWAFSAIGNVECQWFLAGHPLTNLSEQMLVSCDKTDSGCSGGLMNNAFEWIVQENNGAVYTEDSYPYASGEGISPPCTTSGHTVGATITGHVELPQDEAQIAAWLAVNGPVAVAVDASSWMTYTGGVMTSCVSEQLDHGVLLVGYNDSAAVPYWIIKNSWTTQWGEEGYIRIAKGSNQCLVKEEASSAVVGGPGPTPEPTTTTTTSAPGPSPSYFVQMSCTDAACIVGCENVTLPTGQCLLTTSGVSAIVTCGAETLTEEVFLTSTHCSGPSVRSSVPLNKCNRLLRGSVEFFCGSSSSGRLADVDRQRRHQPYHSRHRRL
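In this qHTS format, compounds are incubated with 1.5 nM cruzain for 15 min at room temperature before 2 uM Z-FR-AMC is added. Release of AMC is followed at 360/450 nm, and progress is taken as the 60 s fluorescence difference.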
RE007 growth inh = less growth of the S. pombe RE007 Vpr strain; S. pombe RE007 Vpr strain, BacTiter-Glo ATP luminescence, 24 h; control for the full effect not named in the record; Potency, µM (doses to about 92.2 µM), without a hit: at the top dose activity change, negative = less growth; 0.21% of 360,000 active; AID 651644; active = well fitted falling curve with a large enough effect; inconclusive = small, poorly fitted or top-dose-only effect; inactive = no such curve, though single readings can be large or run the other way;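 also: % is scaled to controls: 0 for no effect and ±100 for the full control effect; nearly all actives have a fitted effect of over 50% in size; the assay follows cell death caused by Vpr and the record does not say whether a fall means rescue or toxicity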
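Fission yeast RE007 carrying one integrated HIV-1 vpr copy, seeded at OD 0.01 in PMG+AL medium with 23 nL pinned compound. Grown 24 h at 30 degrees; viability read by BacTiter-Glo luminescence after 5 min.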
NS1 function inh = blocks influenza NS1 protein function; 0.4% of 270,000 active; AID 2326; S. cerevisiae slowed by influenza A NS1, growth recovery by OD600; Potency, µM (titrated, usually from 46.1 µM), for the others: at the top dose activity, positive = more growth; also: actives are rising curves; nearly all actives have a fitted effect of over 50% in size
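In this qHTS, NS1 from influenza A is expressed in budding yeast, where it slows growth. Cells are switched from glucose to 2% galactose medium (pH 6.0, -URA), treated with compound, and growth recovery is read at OD600.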
SARS PLP yeast = SARS-CoV PLP inhibition in yeast; Potency, µM (doses to about 32.9 µM), without a hit: at the top dose activity, positive = growth rescue; 0.19% of 330,000 active; S. cerevisiae expressing SARS-CoV PLpro, growth rescue; control for the full effect not named in the record; AID 485353; also: 0% is about no effect; nearly all actives have a fitted effect of over 55% in size; growth read by luminescence after 48 h
Cruzain noTriton = cruzain (T. cruzi) inhibition without detergent | P25779 | purified cruzain, Z-FR-AMC fluorescence, no detergent | Potency, µM, for the others: max response, negative = inhibition, actives largely listed as inhibitors | 2.3% of 200,000 active | AID 1476; active = well fitted curve in the direction sought with a large enough effect; inconclusive = small, poorly fitted or top-dose-only effect, or another doubt; inactive = no such curve, though single readings can be large; an effect the other way counts as inactive or inconclusive;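 also: plate controls were enzyme without inhibitor for no effect and buffer without enzyme for full effect; nearly all actives have a fitted effect of over 40% in size; top concentration of the series not given in the record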
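Purified cruzain at 1.5 nM, pre-incubated 15 min with compound at room temperature in 100 mM sodium acetate pH 5.5, 5 mM DTT, 0.00005% Triton X-100. Reaction started with 2 uM Z-FR-AMC; AMC fluorescence increase over 60 s gives rate.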
LASV entry inh = inhibitors of Lassa virus binding or cell entry | 1.2% of 300,000 active | Potency, µM (top dose mostly 37.9 µM), without a hit: at the top dose activity change, negative = inhibition, actives largely listed as inhibitors | Lassa virus pseudotype entry inhibition, cell reporter; control for the full effect not named in the record; active means well fitted inhibition curve with a large enough effect; inconclusive means small, poorly fitted or top-dose-only effect, or effect the other way; inactive means flat fitted curve, though single readings scatter; tested in HEK293 cells; also: % is scaled to controls: 0 for no effect and ±100 for the full control effect; nearly all actives have a fitted effect of over 50% in size; luciferase read-out
StopGo reporter = lowers the luciferase signal of an FMDV 2A StopGo reporter. human cells with a luciferase reporter of 2A StopGo recoding; control for the full effect not named in the record. Potency, µM (highest dose often 57.9 µM), for inactives: top-dose signal change, negative = less light. 1.2% of 410,000 active. AID 1159524; active = well fitted falling curve with a large enough effect; inconclusive = small, poorly fitted or top-dose-only effect; inactive = no such curve, though single readings can be large or run the other way; tested in HEK293T cells; also: % is scaled to controls: 0 for no effect and ±100 for the full control effect; nearly all actives have a fitted effect of over 45% in size; luciferase light after 4 h
Marburg entry inh = blocks Marburg virus binding to or entry into cells; Marburg virus pseudotyped entry inhibition, cell reporter; control for the full effect not named in the record; about a third of the inactives were read at about 46 µM; Potency, µM (series often up to 37.8 µM), inactives show at the highest dose activity change, negative = inhibition, usual class: inhibitors; 1.8% of 300,000 active; AID 540276; active = well fitted inhibition curve with a large enough effect; inconclusive = small, poorly fitted or top-dose-only effect, or effect the other way; inactive = flat fitted curve, though single readings scatter; tested in HEK293 cells; about a fifth of its hits are not listed in these tables; also: % is scaled to controls: 0 for no effect and ±100 for the full control effect; luciferase read-out
The depositor's hits bear a star; u = inconclusive; x = not tested or not shown; & = joins results of further samples; [ ] = remark or other dose. Unless noted, calls follow the shape of the dose curve; as a rule, active means well fitted rising curve with a large enough effect; inconclusive means small, poorly fitted or top-dose-only effect; inactive means no such curve, though single readings can be large or run the other way. Potency is read from the fitted curve at half-maximal effect.

SMILES	Cruzain inh Det	RE007 growth inh	NS1 function inh	SARS PLP yeast	Cruzain noTriton	LASV entry inh	StopGo reporter	Marburg entry inh
O=C(Nc1cccc(Cl)c1)NC1CC2CCC1C2 (stereo not drawn)	x	-1%	-75%	-1%	x	x	41%[activator]	x
COC(=O)COc1ccc(S(=O)(=O)Nc2ccccc2C(=O)OC)cc1	4.6%	5%	-9%	-5%	-15%	17%	x	-5%
O=C(NNS(=O)(=O)c1ccccc1Cl)C1COc2ccccc2O1 (stereo not drawn)	x	-14%	x	-4%	x	13%	-3%	u
CCOC(=O)c1c(/N=C/c2ccc(C)cc2O)sc2c1CCN(C)C2	x	0%	0%	1%	x	1%	-5%	-2%[46.1 µM]
Cc1ccc(NC(=S)N/N=C/c2c(C)nn(-c3ccccc3)c2N2CCCC2)cc1	-2.5%	11%	12%	1%	u	u	-10%	-27%
CCOC(=O)Cc1c[nH]c2ccc([N+](=O)[O-])cc12	x	7%	x	x	x	14%[46.1 µM]	-13%	u
COC(=O)Cc1cc(=O)n2[nH]c(SC)nc2n1	4.2%	19%	-9%	8%	5%	2%	-14%	0%
O=C(Nc1ccc2c(c1)OCO2)N1CCN(S(=O)(=O)c2ccc(Cl)cc2)CC1	2.2%	-3%	-39%	-2%	11%	u	31%[activator]	-1%
COCCN1C(=O)c2oc3ccccc3c(=O)c2C1c1ccc(O)c(OC)c1 (stereo not drawn)	-1.8%	0%	5%	-12%	13%	7%	0%	10%
CC1C(=O)Nc2ccc(S(=O)(=O)N3CCCCC3)cc2NC1=O (stereo not drawn)	-4.1%	x	x	x	1%	4%[46.1 µM]	-3%	-27%[46.1 µM]
N#Cc1nc(COc2ccc(Cl)cc2Cl)oc1N1CCOCC1	-2.3%	-1%	-95%	-14%	5%	8%	10%	-7%
COc1cccc(/C=N/NC(=S)NCc2ccco2)c1OC	x	-2%	1%	1%	x	u	4%	-2%[46.1 µM]
Cc1c(Cl)cccc1-n1ncc(C(=O)N2CCN(c3ncccn3)CC2)c1C1CCN(C(=O)OC(C)(C)C)CC1	-2.6%	x	x	x	u	-3%[46.1 µM]	-24%	x
CCOc1cccc(-c2c(C(=O)N/N=C/c3ccc(Br)cc3)nnn2-c2nonc2N)c1	x	2%	2%	-3%	x	x	3%	x
CCN(CC)C(=O)c1cc(Cl)ccc1NC(=O)c1ccco1	x	18%	3%	0%	x	x	-9%	x
O=C(CSc1n[nH]c(Cc2ccccc2)n1)Nc1ccccc1Br	x	5%	3%	-17%	x	x	21%	u
N#C/C(=N/Nc1ccc([N+](=O)[O-])cc1)C(=N)N1CCCCC1	x	-11%	x	-5%	x	u	30%	-25%[46.1 µM]
CC(=O)C1=C(O)CC(c2ccccc2)CC1=NCCc1c(C)[nH]c2ccccc12 (stereo not drawn)	-8.7%	7%	-8%	1%	u	6%	0%	-3%
O=C(CCc1nnc2ccc(NCc3ccc(F)cc3)nn12)NC1CCCC1	x	6%	-3%	-9%	x	-2%[46.1 µM]	-3%	-16%[46.1 µM]
CC(C)n1nccc1N(Cc1ccc(Cl)cc1)S(=O)(=O)c1ccccc1	x	56%	-72%	-13%	x	-24%	u	u
Cc1ccc(C(=O)NNC(=O)CSc2nnc(-c3ccccc3)n2Cc2ccccc2)cc1	-1.3%	1%	11%	5%	-14%	0%	0%	-14%
COc1ccc(C2=C(C)C(=O)N(Cc3ccc(C(=O)Nc4cc(C)ccc4C)cc3)S2(=O)=O)cc1	-8.1%	x	x	x	u	u	u	x
O=C(NCCC1CCCCN1S(=O)(=O)c1ccccc1)C(=O)NC1CCCC1 (stereo not drawn)	x	11%	x	-1%	x	u	-12%	-11%
Clc1ccccc1CN1CCC(Cc2ccccc2)CC1	-2.0%	-10%	-1%	-15%	-3%	-4%	-2%	u
O=S(=O)(NC1CC2CCC1C2)c1ccc(Cl)cc1 (stereo not drawn)	x	-20%	-104%	-14%	x	x	31%[activator]	x
NC(=O)C1CCN(C(=O)CSc2nc3ccccc3s2)CC1	-5.3%	5%	4%	1%	-5%	10%	31%[activator]	22%
COc1ccccc1CNc1nc2ccccc2c2nc(-c3cccnc3)nn12	0.4%	x	x	x	-3%	x	-10%	-1%[46.1 µM]
O=C(NCc1cccnc1)c1cc(-c2ccccc2)on1	-0.4%	-18%	-3%	2%	3%	-4%	97%[activator]	-3%
CCC(=O)Nc1ccc2nc(SCc3ccccc3)sc2c1	-10.0%	x	x	x	5%	15%[46.1 µM]	5%	-1%[46.1 µM]
CC1(C(=O)NNC(=O)c2ccc([N+](=O)[O-])cc2)CC1(Br)Br (stereo not drawn)	x	-11%	-14%	-2%	x	24%[46.1 µM]	-8%	1%[46.1 µM]
O=C(Nc1nnc(S(=O)(=O)Nc2ccccc2)s1)c1ccccc1Cl	-0.8%	15%	30%	-8%	-12%	-5%&17%[46.1 µM]	12%&-8%	16%[46.1 µM]
COc1cccc(-n2nnnc2SCC(=O)c2cc(OC)ccc2OC)c1	1.1%	x	0%	0%	-8%	x	x	x
CC(=O)Nc1ccc(S(=O)(=O)NC2CCSc3ccccc32)cc1 (stereo not drawn)	x	12%	14%	3%	x	u	6%	10µM*
COc1ccc(C(C)=O)cc1CSc1nncn1C	x	-2%	x	1%	x	-4%[46.1 µM]	25%	22%[46.1 µM]
Cc1ccc(Cl)cc1N1CCN(C(c2ccc(F)cc2)c2nnc(-c3ccccc3)o2)CC1 (stereo not drawn)	-0.6%	x	x	x	6.3µM*	-26%[46.1 µM]	-4%	u
Cc1ccc(C(=O)NCC2CCCO2)cc1[N+](=O)[O-] (stereo not drawn)	0.3%	-5%	6%	-24%	23%	5%	-1%	u
Cc1ccc(S(N)(=O)=O)cc1NC(=O)c1ccc2c3c(cccc13)CC2	x	-6%	19%	7%	x	x	0%	x
CC1CN(S(=O)(=O)c2cccc(C(F)(F)F)c2)CC(C)O1 (stereo not drawn)	x	-7%	0%	1%	x	-5%	-11%	2%
COC(=O)c1ccc(C(=O)OC)c(NC(=O)CSCc2ccc(Cl)cc2)c1	-0.9%	-11%	-2%	-11%	0%	-5%	-15%	-8%
Cc1cc(C)c(NC(=O)Cn2nc(-c3ccncc3)ccc2=O)c(C)c1	0.2%	x	x	x	3%	16%[46.1 µM]	-22%	x
COc1ccc(-c2cc(C(=O)N(C)CC(=O)Nc3ccccc3Br)c3ccccc3n2)cc1OC	x	5%	x	-7%	x	u	-18%	u
CC(C)c1ccc2oc(-c3cc(NC(=O)c4cccnc4)ccc3Cl)nc2c1	-9.8%	x	x	x	u	20%[46.1 µM]	1%	-48%[46.1 µM]
O=C(NCCc1ccccc1)c1ccc2c(c1)N(Cc1ccc(F)cc1Cl)C(=O)CS2	-0.7%	x	x	x	-57%	5%[46.1 µM]	-22%	u
COC1=CC(=O)C(C2CC(=O)c3c(O)cc(O)cc3O2)=CC1=O (stereo not drawn)	x	0%	x	x	x	-7%	6%	-6%
COc1ccccc1-n1nnnc1SCC(=O)Nc1oc(C)c2c(C)n[nH]c(=O)c12	x	-11%	x	2%	x	1%	-18%	-1%
O=C1Nc2ccc(Br)cc2/C1=N\N=C\C1=C(N2CCOCC2)C(=C/c2ccccc2)/CC1	x	-21%	x	x	x	-4%[46.1 µM]	u	-11%[46.1 µM]
COc1cc(NC(=O)COc2ccc(-n3ccnc3)cc2)cc(OC)c1	x	12%	x	0%	x	4%	u	-10%[46.1 µM]
O=C(Nc1ccc(-c2nnc3n2CCCCC3)cc1)c1cnccn1	2.9%	0%	3%	0%	-10%	7%	5%	-2%
COc1ccc(C(=O)NCc2ccccn2)cc1	0.2%	-23%	7%	9%	u	14%	33%[activator]	1%[46.1 µM]
Cn1c(=O)c2c(ncn2CC(O)CNc2ccc(Cl)cc2)n(C)c1=O (stereo not drawn)	3.8%	-1%	1%	x	8%	-11%	u	2%[46.1 µM]
CC(C)CSc1oc(-c2ccco2)nc1S(=O)(=O)c1ccc(Br)cc1	-8.8%	x	x	x	-9%	-1%[46.1 µM]	5%	u
O=C1CN(C(=O)c2cccc([N+](=O)[O-])c2)CC(=O)N1	x	14%	-3%	9%	x	16%[46.1 µM]	-1%	4%[46.1 µM]
O=C(CCS(=O)(=O)c1ccc2c(c1)NC(=O)CO2)Nc1cccc(C(F)(F)F)c1	-1.2%	x	x	x	16%	19%[46.1 µM]	-28%	x
COc1ccccc1N=C1SCCCN1C	3.1%	-13%	-8%	5%	-11%	6%	-24%	0%
CN(C)c1ccc(CNC(=O)C2CCN(c3nnc(-n4cccc4)s3)CC2)cc1	-3.0%	x	x	x	-2%	-22%[46.1 µM]	-18%	x
O=c1[nH][nH]c2cc([N+](=O)[O-])ccc12	x	11%	x	x	x	-16%[46.1 µM]	-29%	u
O=C(c1ccccc1Br)N(Cc1ccccc1F)C1CCS(=O)(=O)C1 (stereo not drawn)	-3.1%	x	x	x	-3%	9%[46.1 µM]	-9%	-4%[46.1 µM]
COC(=O)/C(=N/Nc1cccc(C)c1)N1CCCc2ccccc21	-5.6%	-2%	-24%	-50%	-29%	1%	-9%	21%
CC(=O)C1=C(O)C(=O)N(CCc2ccccc2)C1c1ccccc1[N+](=O)[O-] (stereo not drawn)	-1.7%	6%	14%	-9%	6%	-8%	-5%	24%
CCOc1cc(C(=O)N=c2sccn2C)ccc1OC(F)F	x	2%	9%	-7%	x	x	37%[activator]	x
Additional structures follow:
SMILES	Cruzain inh Det	RE007 growth inh	NS1 function inh	SARS PLP yeast	Cruzain noTriton	LASV entry inh	StopGo reporter	Marburg entry inh
O=C(COc1ccccc1)NCC1COc2ccccc2O1 (stereo not drawn)	x	-13%	-12%	-1%	x	4%[46.1 µM]	37%[activator]	-1%[46.1 µM]
COc1ccc(S(=O)(=O)N(C)C)cc1NC(=O)CCNC(=O)c1ccco1	x	0%	-5%	-1%	x	x	0%	2%[46.1 µM]
O=C(NCCCNCc1ccccc1)c1ccccn1	-2.2%	3%&5%	-2%	4%	0%	-1%[46.1 µM]	-16%&-22%	-4%&-1%
COC(CNC(=O)c1ccc(N2CCc3ccccc32)c([N+](=O)[O-])c1)OC	-6.3%	10%	3%	-17%	-6%	u	u	u
COc1cc(C(=O)Nc2ccc(S(=O)(=O)Nc3cc(C)nc(C)n3)cc2)cc(OC)c1OC	x	-10%	x	3%	x	11%	45%[activator]	20%[46.1 µM]
